BasE inh – inhibitors of Acinetobacter baumannii siderophore enzyme BasE | 84,000 tested, 0.1% active | inhibition, % (no concentration beside the values) | purified BasE, fluorescence polarization binding displacement | AID 485350;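 active = both replicates above 25% with normal brightness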;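 note: 0% = negative plate control signal and 100% = positive plate control signal; stock transfer was 100 nL into about 30 µL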
KSHV LANA nucl – LANA-nucleosome interaction inhibition; FITC-LANA1-23 / chicken nucleosome fluorescence polarization; stronger effect = lower value; z-score (test concentration not listed); 51,000 tested, 0.3% active; AID 720717;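 active = both repeat wells score below -2 in polarization z-score versus plate sample wells, excluding overly bright wells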;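 note: 100 nL library stock added to about 30 µL; numbers are from one replicate; some results filed as inactive read as strong as hits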
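Assay system: purified chicken nucleosomes with FITC-labelled LANA N-terminal peptide (1-23) / Probe or stimulus: 50 nM FITC-LANA1-23 probe / Compound dosing: pin-transferred compound, 100 nL / Times: compound with peptide–nucleosome mix 10–45 min at room temperature / Technique: fluorescence polarization, 480 nm excitation, 535 nm parallel and perpendicular emission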
* = called active by the depositor; nt = not tested or not shown.

canonical_smiles | KSHV LANA nucl | BasE inh
CS(=O)(=O)c1nc2ccccc2n1C/C=C/c1ccccc1 | 0.012 | 2.6
O=C(c1ccco1)N1CCCSC1=Nc1ccccc1 | nt | 0.2
Cc1ccc(C)n1NC(=O)c1cccc(Br)c1 | -0.892 | 2.2
N#CC1=C(N)OC2=C(C(=O)CCC2)C1c1cccnc1 (stereo not given) | -0.533 | 1.6
COc1ccc(CNS(=O)(=O)c2ccc(-c3cc(C)no3)cc2)cc1 | -0.054 | 0.6
O=C(OCc1ccccc1)c1cccc(-c2nnc(-c3ccccc3)o2)c1 | -0.246 | 3.5
Clc1ccc(-c2noc3ncnc(NC4CC4)c23)cc1 | 1.37 | -3.9
S=C(c1ccccn1)N1CCN(C(=S)c2ccccn2)CC1 | 0.068 | 2.4
CN(C)c1ccc(-n2cccc2/C=N/n2cnnc2)cc1 | nt | -1.4
COc1ccc(N=C2C(=O)N(c3ccccc3)c3ccccc32)cc1 | -0.755 | nt

canonical_smiles | KSHV LANA nucl | BasE inh
CCOC(=O)C1(CCSC)NC(c2cccs2)C2C(=O)N(CC)C(=O)C21 (stereo not given) | 0.342 | 1.2
O=C(Oc1ccc(F)cc1)/C(=C\c1cccs1)c1ccsc1 | nt | -2.1
Nc1ccc2c3c(cccc13)C(=O)NC2=O | 2.39 | 24.8
CCOc1ccc2c(c1)c(=O)c1cccnc1n2Cc1cccc(OC)c1 | nt | -0.6
Cc1c(O)ccc(/C(Cc2ccc3ccccc3n2)=N\N)c1O | nt | -7.7
CC1(C)Oc2ccc3ccc(=O)oc3c2C/C1=N/O | 0.577 | -1.2
CS(=O)(=O)N1CCSC1c1ccc(Cl)cc1Cl (stereo not given) | 2.24 | -0.9
CCCn1c(=O)c(-c2nc3ccccc3[nH]2)c(O)c2ccccc21 | -0.341 | 2.0
c1ccc(C2=NCCCN2)cc1 | nt | 1.2
CCOC(=O)CN1C(=O)S/C(=C/c2ccc3c(c2)n(C)c(=O)n3C)C1=O | nt | -0.8

canonical_smiles | KSHV LANA nucl | BasE inh
CCN(C(=O)N(C)C)c1ccccc1C | 0.411 | 1.4
COCCCn1c(C)nnc1SCc1ccc(C(C)(C)C)cc1 | -0.303 | -0.3
O=C(O)CNC(=O)CC1S\C(=N/N=C/C=C/c2ccccc2)N(Cc2ccco2)C1=O (stereo not given) | nt | 0.2
FC(F)(F)c1cc(-c2cccs2)nc(-n2cc(Br)cn2)n1 | -0.936 | -1.7
CC(=O)N1CCN(c2ccccc2NC(=O)COc2ccccc2)CC1 | -0.554 | 3.3
O=c1[nH]c2ccc(S(=O)(=O)NC3CCCCC3)cc2[nH]1 | 0.157 | -1.8
O=C(O)c1cccc(S(=O)(=O)/N=C2/C=C(NS(=O)(=O)c3ccccc3)C(=O)c3ccccc32)c1 | nt | 3.5
Cc1c(C)c(C)c(C(O)c2ccccc2)c(C)c1C (stereo not given) | nt | 3.0
Cc1oc(-c2ccccc2)nc1C(=O)OCc1nc2ccccc2c(=O)n1CC#N | nt | -2.5
COC(=O)c1ccc(COC(=O)/C=C/c2cccs2)o1 | nt | 0.5

canonical_smiles | KSHV LANA nucl | BasE inh
COCCNS(=O)(=O)c1ccc(S(=O)(=O)N2CCCCC2)cc1 | -1.73 | 0.2
Cn1nccc1C(=O)OCC(=O)Nc1ccccc1Cl | -0.266 | -0.6
CCN1CCN(c2ccc(NC(=O)COc3ccccc3)cc2)CC1 | -1.55 | -2.1
CCOC(=O)c1cc(-c2csc(CS(C)(=O)=O)n2)on1 | nt | 3.6
CCN(CC)C(=O)CSc1nc(-c2ccccc2)cc(=O)[nH]1 | -0.506 | 0.3
CC(C)CCN1CCC(CNS(=O)(=O)c2ccc(-c3cc(C(F)(F)F)no3)s2)CC1 | nt | 1.2
CC(Sc1nc(N2CCOCC2)c2c(c1C#N)CC(C)(C)OC2)C(=O)Nc1ccccc1 (stereo not given) | 2.17 | -2.4
Cc1ccccc1OCCN1C(=O)NC(C)(c2ccccc2)C1=O (stereo not given) | nt | 0.7
COc1ccc2[nH]c(=O)c(CN(CCCN3CCOCC3)C(=O)NCc3ccccc3)cc2c1 | 0.657 | 0.3
Cc1cc(C)c2c(n1)CC(C)(C)CC2=O | -0.0785 | 3.6

canonical_smiles | KSHV LANA nucl | BasE inh
O=C1CCN(CC(=O)Nc2ccc(Cl)cc2C(F)(F)F)CC1 | nt | -0.5
CCn1c(COC(=O)c2c(NC(C)=O)sc(C)c2C)nc2cc(S(=O)(=O)N(C)C)ccc21 | nt | -0.7
CN(C)c1ccc(/C=C2/C(=O)NC(=O)N(C(C)(C)C)C2=O)cc1 | 0.189 | 0.4
CC(OC(=O)c1cccn1C)C(=O)Nc1ccc(Cl)cc1 (stereo not given) | nt | -1.1
N#C/C(=C\c1cn(-c2ccccc2)nc1-c1cccs1)c1cccc(C#N)c1 | -0.154 | 0.1
Cc1ccc(NC(=O)CCSc2nnc(C)o2)cc1 | -1.47 | -3.0
Oc1cccc(-c2ccc3ccccc3n2)c1 | 0.514 | nt
O=C(COc1ccccc1Cl)N(Cc1ccco1)Cc1ccccc1F | 1.21 | 1.2
CC1CC(C)CN(S(=O)(=O)c2ccc(Cl)c(C(=O)O)c2)C1 (stereo not given) | nt | 2.0
CCCn1c(SC(C(=O)NC(=O)NC)c2ccccc2)n[nH]c1=O (stereo not given) | nt | -1.6

canonical_smiles | KSHV LANA nucl | BasE inh
Cc1cc(S(=O)(=O)NC2CCCCNC2=O)c(C)s1 (stereo not given) | nt | 1.0
COc1ccc(Cl)cc1C(=O)N1CCCC1 | -0.528 | 4.7
O=C(NC(Cc1ccccc1)C(=O)O)C1CCCCC1 (stereo not given) | -1.16 | 0.2
N#Cc1ccc(CSc2nnc(-c3cccs3)n2CC2CCCO2)cc1 (stereo not given) | nt | 2.0
CCOC(=O)c1c(C)[nH]c(C)c1C(=O)COC(=O)c1ccc(N2CCCC2=O)cc1 | nt | 0.6
Cc1nc(Cc2nnc(SC/C(O)=C(\C#N)c3nc4ccccc4[nH]3)o2)cs1 | nt | -1.3
CC(C)C(=O)N1C(=O)c2cccc3c(S(=O)(=O)N(C)C)ccc1c23 | 0.568 | -0.1
CSc1nc(-c2ccccc2)c(C#N)c(N(C)C2CCCCC2)n1 | -0.826 | -0.7
COc1ccc(NS(=O)(=O)c2cc(C(=O)N3CCN(C(C)=O)CC3)ccc2Cl)cc1 | nt | -0.3
Cc1cccc(C(CC(=O)NC2CC2)n2cccc2)c1 (stereo not given) | -0.451 | 0.5

canonical_smiles | KSHV LANA nucl | BasE inh
C=CCNC(=O)c1cccc2c1-c1ccccc1C2=O | 0.0365 | -0.5
Clc1ccc(-c2nc(-c3ccccc3)no2)cc1 | -0.041 | -0.2
CCn1cc(/C=N/O)c(C)n1 | -0.0365 | 4.8
O=C(CSc1nc2ccccc2n1-c1ccccc1)c1ccc[nH]1 | nt | -0.8
O=C(O)c1ccccc1S(=O)c1ccc(Cl)cc1 (stereo not given) | nt | -0.4
Cc1cc(C)n(CCCN)n1 | -0.0695 | -0.3
O=c1oc2ccccc2n1CCn1c2ccccc2c2nc3ccccc3nc21 | -1.53 | 4.5
COCC(C)n1c(C)cc(C(=O)CSc2ncccn2)c1C (stereo not given) | nt | 1.2
CC(C)n1ncc2cc(N)cnc21 | nt | 2.1
CCS(=O)(=O)Nc1ccc(C2=NN(S(=O)(=O)CC)C(c3ccccc3)C2)cc1 (stereo not given) | nt | -2.4

Record cards, as listed above. Order of screens: KSHV LANA nucl, BasE inh
Record of C=CCNC(=O)c1cccc2c1-c1ccccc1C2=O → 0.0365, -0.5
Record of CC(C)n1ncc2cc(N)cnc21 → nt, 2.1

Further structures:
canonical_smiles | KSHV LANA nucl | BasE inh
CCOC(=O)C1CCN(c2nnnn2-c2ccccc2)CC1 | nt | 0.5
S=c1[nH]nc(Cn2nnc3ccccc32)o1 | nt | -0.8
CSc1c(-c2ccc(Cl)cc2)[nH]c2ccccc12 | nt | 4.9
Cc1ccc(S(=O)(=O)N2CCN(C(=O)COC(=O)c3ccc(O)cc3)CC2)cc1 | nt | -0.8
O=C1c2ccccc2C(=O)N1CC(O)CN1CCOCC1 (stereo not given) | 0.432 | -0.2
O=c1cc(CSc2nnc(-c3ccccc3)n2Cc2ccc3c(c2)OCO3)nc2sccn12 | nt | -1.2
N#Cc1ccccc1OCC(=O)NC1CC1 | nt | -0.5
CC(=O)Nc1ccc(I)cn1 | -1.45 | nt
CN(C)/C=N/c1c(C#N)cnn1-c1ccccc1 | -0.333 | -0.9
Cc1ccccc1Nc1nnc(SCC(=O)NC(C)(C#N)C(C)C)s1 (stereo not given) | nt | -1.2

canonical_smiles | KSHV LANA nucl | BasE inh
CC1(C)C(=O)Nc2ccccc2N1C(=O)COC(=O)c1ccccn1 | nt | 3.0
CC1(C)CC(=O)C2=C(C1)Oc1ccccc1C2CC(=O)c1cccs1 (stereo not given) | nt | 0.4
Nc1nnc(SCC(=O)c2cccs2)s1 | nt | -3.2
CC(=O)Nc1ccc(S(=O)(=O)N(C2=NCC(C)S2)c2ccccc2)cc1 (stereo not given) | 0.158 | 4.7
Cc1nc(CSCC(=O)O)cs1 | nt | 1.1
CCN1CCCC1CNC(=O)c1nn(C)c2c1CSc1ccccc1-2 (stereo not given) | -0.508 | -4.4
COC(=O)c1ccc(CN2C(=O)NC(Cc3ccccc3)(Cc3ccccc3)C2=O)o1 | nt | 3.2
CN(c1ccnc(C(=O)NC2CCCC2)c1)S(=O)(=O)c1ccccc1 | -1.41 | -1.2
CN=C1S/C(=C\c2cn(CC(=O)NCc3ccco3)c3ccccc23)C(=O)N1C | 0.688 | 4.8
Oc1c(C(c2ccccn2)N2CCN(c3ccccn3)CC2)ccc2cccnc12 (stereo not given) | nt | 1.7

canonical_smiles | KSHV LANA nucl | BasE inh
CCc1nn2cc(-c3ccc(C)cc3)nc2s1 | 0.074 | -2.8
NN1C(=O)/C(=C/c2cccs2)SC1=S | 0.262 | 0.6
Cc1cc(Br)c(NC(=S)NC(=O)C(C)(C)C)c(Br)c1 | nt | 1.7
O=C1CSc2ccc(C(=O)N3CCN(S(=O)(=O)c4ccc5c(c4)CCC5)CC3)cc2N1 | nt | 0.4
CC(=O)Nc1ccc(N=Cc2ccc(C)cc2)cc1 | nt | 1.5
C=C(C)[C@@H]1Cc2cc3ccc(=O)oc3cc2O1 | 0.147 | -0.3
CCCNCc1cc(OCC)c(OCC(N)=O)cc1Br | -0.725 | 4.0
O=C(c1ccco1)N1CCc2sccc2C1c1ccc(OC(F)(F)F)cc1 (stereo not given) | nt | 0.8
Cc1ccc(Nc2nc(N)nc(CSc3nnc4n3CCCCC4)n2)cc1 | nt | -0.1
COc1cc(/C=C2/C(=O)ON=C2c2ccccc2)ccc1O | nt | 2.5

Six of the entries above in order of the KSHV LANA nucl value, largest number first.
| mol | KSHV LANA nucl |
| --- | --- |
| Oc1cccc(-c2ccc3ccccc3n2)c1 | 0.514 |
| O=C1c2ccccc2C(=O)N1CC(O)CN1CCOCC1 (stereo not given) | 0.432 |
| Cc1cc(C)c2c(n1)CC(C)(C)CC2=O | -0.0785 |
| CN(C)/C=N/c1c(C#N)cnn1-c1ccccc1 | -0.333 |
| CCN(CC)C(=O)CSc1nc(-c2ccccc2)cc(=O)[nH]1 | -0.506 |
| CN(c1ccnc(C(=O)NC2CCCC2)c1)S(=O)(=O)c1ccccc1 | -1.41 |

Continuation.
canonical_smiles | KSHV LANA nucl | BasE inh
Cn1c(=O)c(=O)n(C)c2cc(S(=O)(=O)N3CCCC3C(=O)NCc3cccs3)ccc21 (stereo not given) | -0.828 | -0.2
Cc1ccccc1C1NC(c2ccccc2C)C(C)C(=O)C1C (stereo not given) | nt | 1.7
O=C(CC1N=C2c3ccccc3N=C(SCc3ccc(F)cc3)N2C1=O)NCc1ccco1 (stereo not given) | 0.492 | 0.5
COC(OC)(OC)c1cc2ccccc2c(=O)[nH]1 | nt | 2.5
Cc1cc(-n2c(C)cc(C(=O)COC(=O)c3ccc(C)c(NC(=O)c4ccco4)c3)c2C)no1 | nt | -1.7
Cc1ccc(C2Nc3ccccc3C(=O)N2CCCN2CCOCC2)cc1 (stereo not given) | -0.304 | nt
O=C(CCN1C(=O)NC2(CCCC2)C1=O)Nc1nc2ccccc2[nH]1 | nt | 1.7
O=C(CCC1COc2ccccc2O1)N1CCN(Cc2ccccc2)CC1 (stereo not given) | -0.585 | 1.0
COCCOC(=O)c1c(C)oc2cc(Br)c(OC(C)C(=O)OC)cc12 (stereo not given) | -1.09 | -0.8
COc1ccc(C(=O)NC23CC4CC(CC(C4)C2)C3)cc1 | nt | 0.0

canonical_smiles | KSHV LANA nucl | BasE inh
O=C(CSc1nc(-c2ccccc2)cs1)Nc1ccnn1C1CCCC1 | nt | 0.6
O=C(O)c1cccc(N2C(=O)CSC2c2ccccc2)c1 (stereo not given) | nt | 0.4
O=c1c(=O)n(-c2ccccc2)ccn1Cc1ccccc1 | 0.184 | -0.1
Cc1c2oc3c(C)ccc(C(=O)N[C@@H]4C(=O)N[C@H](C(C)C)C(=O)N5CCC[C@H]5C(=O)N(C)CC(=O)N(C)[C@@H](C(C)C)C(=O)O[C@@H]4C)c3nc-2c(C(=O)N[C@@H]2C(=O)N[C@H](C(C)C)C(=O)N3CCC[C@H]3C(=O)N(C)CC(=O)N(C)[C@@H](C(C)C)C(=O)O[C@@H]2C)c(N)c1=O | -0.858 | nt
Nc1nnc(SCc2ccccc2)s1 | -0.113 | 0.2
CC(C)Cn1c(=O)c2ccccc2n2c(CCC(=O)O)nnc12 | 0.104 | 0.9
CCC(C)OC(=O)C1=C(C)NC(=O)NC1c1ccc(F)c(Br)c1 (stereo not given) | -0.97 | 1.4
CCCc1cc(=O)[nH]c(SCC(=O)N2CCC(C)CC2)n1 | -0.361 | 1.0
CCCc1nnc(SCC(=O)N2CCCC2)n1CCOC | -0.906 | 1.9

The list is partial; the hit share may differ from the screen's.
